Screening results as filed in PubChem.
Mtb hypoxia rep: inhibitors of hypoxia-regulated fluorescent reporter in Mycobacterium tuberculosis; M. tuberculosis hypoxia-regulated fluorescent reporter, fluorescence; fluorescence inhibition, % (test concentration not listed); hit rate 0.1% among 300,000; AID 1159583;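 active = 35 to 45% if threefold the growth effect, above 45% if 1.5-fold the growth effect; inactive = the rest, general growth blockers included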;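 also: wells of about 50 µL received 100 nL stock; 0% = vehicle wells and 100% = reference inhibitor wells; whole bacteria with a GFP reporter of the hypoxia response; strong numbers were not always called active; many hits fall short of the cut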
BJeLR viability: BJeLR cell viability loss; inhibition, % (test concentration not listed); hit rate 0.17% among 300,000; AID 1554; BJeLR (HRASV12) viability, CellTiter-Glo ATP luminescence, 48 h; reference of the scale not given here;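 active = replicate mean above 50%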;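 also: 50 nL library stock added to about 25 µL; numbers are from one replicate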
RN4220 kill: S. aureus RN4220 growth inhibition. inhibition, % (no concentration beside the values). OD600, 16 h. hit rate 0.33% among 330,000. AID 1259311;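 active = z-score of -3 or lower and OD600 up to 0.18 on both plates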;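 also: plate controls were untreated cells for no effect and reference antibiotic for full effect; stock transfer was 100 nL into about 80 µL; one replicate is shown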
PrP 5UTR inh: inhibition of PrP 5' UTR reporter expression. cell-based PrP 5' UTR mRNA reporter, plate reader. inhibition, % (no concentration beside the values). hit rate 0.35% among 340,000;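 active = every replicate at 50% or more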;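 also: 0 = median of the neutral control wells; tested in H4 reporter cells; numbers are from one replicate; inactives centre near -14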
Bead autofluor: flagged as autofluorescent in microsphere protease counterscreen | AID 624483 | hit rate 3.1% among 360,000 | fluorescence intensity (test concentration not listed) | compound autofluorescence counterscreen, microsphere flow cytometry; stronger effect = higher value;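 active = at least 3 SD above the mean of all compounds, about 16000 in these data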;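 also: 100 nL of 1 mM stock went into each well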
ugtP null kill: compounds lethal to S. aureus RN4220 ugtP deletion mutant; OD600 growth, 16 h; some inactives read as strong as hits; AID 1259309; growth inhibition, % (test concentration not listed); hit rate 0.54% among 330,000;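 active = z-score under -3 and OD600 up to 0.15 on both plates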;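 also: plate controls were untreated wells for no effect and antibiotic for full effect; wells of about 80 µL received 100 nL stock; the first replicate is given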
Mtb hypoxia rep growth: also measured in Mtb hypoxia rep; calls as there; growth inhibition, %; measured here: M. tuberculosis growth (absorbance);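 0% = vehicle and 100% = reference antibiotic; read after six days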
The depositor's hits bear a star; x = no result given.

Second line of a record – Mtb hypoxia rep growth	PrP 5UTR inh	BJeLR viability	ugtP null kill	Bead autofluor	Mtb hypoxia rep	RN4220 kill
> COc1cccc(-n2ccnc2SCC(=O)Nc2nccs2)c1
    x	-18	-11	3	5025	x	6.5
> COc1ccccc1N(CC(O)Cn1c(C)nc2ccccc21)S(=O)(=O)c1ccccc1 (centres undefined)
    7	-20	-6	12	3023	1	2.2
> O=C(Cn1cc[n+](CC(=O)c2ccccc2)c1)c1ccccc1
    x	-24	-4	-1	4095	x	2.2
> Cc1cc(NC(=O)C(C)C)ncc1NC(=O)CCc1ccccc1
    6	-14	0	4	4859	5	4.5
> CC(C)CN(C(=O)COC(=O)CSc1ccc(Br)cc1)C1CCS(=O)(=O)C1 (centres undefined)
    1	-23	x	-2	3981	1	5.3
> O=C(NCC(c1ccco1)N1CCc2ccccc21)C(=O)Nc1ccccc1 (centres undefined)
    -2	-14	14	12	x	4	-0.8
> CCCCOC(=O)n1c(=S)oc2cc(Cl)ccc21
    -4	-11	-2	3	2355	1	0.0
> CSc1ccc(/C=C2/C(=N)N3N=C(CC(=O)N4CCCC4)SC3=NC2=O)cc1
    5	-5	7	-2	4278	12	11
> O=C(NCC1CCCO1)C(=O)N/N=C\c1ccc2c(c1)OCO2 (centres undefined)
    x	-18	8	x	5687	x	x
> O=c1cc(CSc2nnc(-c3ccco3)o2)c2ccccc2[nH]1
    3	-5	-8	-6	22171*	-10	2.5
> COc1nc(NN=Cc2cc3c(cc2Br)OCO3)nc(N2CCOCC2)n1
    18	x	x	-10	x	14	-0.4
> COc1ccc(S(=O)(=O)N(C)c2ccc(C(=O)NCCC(C)C)cc2)cc1
    -5	-5	-7	-15	19593*	-4	-7.0
> Cc1[nH]n(-c2ccccc2)c(=O)c1C=NN1C(=O)c2cccc3cccc(c23)C1=O
    -15	x	x	11	x	-4	3.5
> Cc1cc(=O)n2[nH]c(-c3cccc(Cl)c3)cc2n1
    -3	x	-4	-3	3037	19	0.7
> O=c1[nH]c2ccccc2c2cn(-c3ccccc3)nc12
    12	-118	-14	-10	6368	18	9.8
> O=C(NC(Cc1c[nH]c2ccccc12)C(=O)O)c1ccco1 (centres undefined)
    0	-17	-5	0	3546	10	0.7
> COC(=O)c1ccc(NC(=O)NC2CCCCC2)cc1
    5	-51	-11	-16	2585	0	1.2
> O=C(CSc1n[nH]c(=O)n1C1CC1)c1ccc2c(c1)OCCO2
    3	x	6	6	x	4	4.3
> COc1ccc(NS(=O)(=O)c2cccc(C(=O)NNC(=O)CNC(=O)c3ccccc3Cl)c2)cc1
    1	-9	x	4	3618	-1	7.4
> Cc1cccc(C)c1NC(=O)CSc1nnc(C2CCCCC2)o1
    x	-9	9	x	4180	x	x
> CCOC(=O)c1cc(-c2ccc(F)cc2)n(CC(=O)NCc2ccccn2)c1C
    7	-13	-2	15	2018	-5	-1.3
> COc1ccc(Cl)cc1NC(=O)CN(C)CC(=O)Nc1ccc2c(c1)OCO2
    -4	-81	x	6	5802	-2	4.2
> CC(C)c1c(C(=O)NN=Cc2ccccc2C(=O)O)nnn1-c1nonc1N
    6	x	x	-11	x	-7	18
> CCCn1c(SCC(=O)Nc2cccc(Cl)c2Cl)n[nH]c1=O
    1	-5	-11	-1	4898	-1	2.3
> Cc1cccc(C(=O)NNC(=O)c2c(O)c3ccccc3n(C)c2=O)c1
    0	-40	2	61	5370	-5	21
> CC1CCC(NC(=O)COC(=O)c2cccnc2Cl)CC1 (centres undefined)
    7	-24	x	3	4024	8	2.9
> CCn1cc(C(=O)c2cccs2)c2ccccc21
    9	-9	-15	1	16945*	5	2.8
> Cc1ccc(C)c(N2CCN(C(=O)c3ccc4nsnc4c3)CC2)c1
    12	-50	7	3	4786	11	0.1
> O=C(COC(=O)C1(c2ccccc2F)CCCC1)Nc1ncc(C(F)(F)F)cc1Cl
    4	-10	-9	-10	2527	8	7.2
> O=C(CSc1nc2[nH]ncc2c(=O)n1-c1ccccc1Br)NCc1ccccc1Cl
    5	41	-4	-9	3515	-7	1.1
> O=C(O)CC(NC(=O)C(c1ccccc1)c1ccccc1)c1cccc([N+](=O)[O-])c1 (centres undefined)
    2	-35	9	-1	4749	5	1.4
> CC(C)(CO)CNC(=O)c1ccc(OC2CCN(C(=O)C3CC3)CC2)cc1
    8	-31	-9	2	4490	12	7.2
> Cc1csc2c(N3CCN(C(=O)NC(C)(C)C)CC3)ncnc12
    6	-10	0	8	4601	13	2.9
> C/C(=N\OC(=O)c1ccccc1F)c1nccs1
    x	-14	-5	x	9429	x	x
> COc1ccc(NC(=O)Cn2cc(C(=O)c3ccco3)c3ccccc32)cc1
    3	-7	-3	-9	3014	4	17
> CC[C@]12c3[nH]c4ccc(Cl)cc4c3CCN1C(=O)[C@@H](CC(=O)NCc1ccc(OC)c(OC)c1)C[C@@H]2C(=O)N1CCN(C(=O)C2CC2)CC1
    0	-11	x	0	3732	10	3.1
> OCc1nc2ccccc2n1/N=C/c1cccs1
    x	-27	1	x	3681	x	x
> COc1ccc(NC(=O)C(NC(=O)OC(C)(C)C)C(C)OCc2ccccc2)cc1 (centres undefined)
    -1	-22	6	-2	21191*	3	3.4
> CC(=NN=C(N)N)c1ccc(Cl)c(Cl)c1
    9	x	x	-6	x	18	-15
> CSCCC(NC(=O)/C(=C\c1ccco1)NC(=O)c1ccco1)C(=O)O (centres undefined)
    15	-23	0	11	3851	-4	6.3
> COc1ccccc1CNC(=O)COC(=O)C12CC3CC(CC(O)(C3)C1)C2
    5	-5	x	2	8426	6	0.6
> COc1cccc(/C=C2\CC(C)Cc3c2nc2ccccc2c3C(=O)O)c1OC (centres undefined)
    15	-2	-10	6	3372	5	3.9
> COc1ccccc1C(=O)Nc1cc(C)c(OCC(=O)N2CCOCC2)c(C)c1
    8	-18	1	3	5478	2	0.2
> O=C(c1cc2c(s1)-c1ccccc1OC2)N1CCN(c2ccccc2)CC1
    5	-16	8	10	4291	4	-1.5
> CCCOc1ccc(CCC(=O)N/N=C/c2ccc([N+](=O)[O-])o2)cc1
    x	-33	-10	x	4426	x	x
> O=C(O)C1C2CCC(C2)C1C(=O)NCCC1=CCCCC1 (centres undefined)
    7	-2	-1	-6	1869	0	-1.1
> Cc1nnc(NC(=O)c2cccc(S(=O)(=O)N(C)c3cccc(Cl)c3)c2)s1
    2	-2	x	3	x	13	13
> CCOc1nc(C)cc(COC)c1C(N)=O
    7	-6	x	5	4153	8	15
> CCOc1ccc(N(CC(=O)N2CCOCC2)S(=O)(=O)c2ccc(Cl)cc2)cc1
    6	-11	5	2	3861	-8	0.8
> COc1ccc(NC(=O)C2C3C=CC(C3)C2C(=O)NCc2ccccn2)c(OC)c1 (centres undefined)
    x	-16	x	2	3995	x	2.7
> Cc1cccc(OCC(=O)N2CCN(Cc3ccc4c(c3)OCO4)CC2)c1
    5	-3	2	4	3549	5	11
> COc1ccc(Cn2nc(C(=O)O)c3ccccc3c2=O)cc1F
    2	4	-1	6	4939	5	3.7
> O=C(CN1C(=O)NC(c2ccccc2)(c2ccccc2)C1=O)Nc1ccc2[nH]c(=O)[nH]c2c1
    8	-3	0	-2	4489	16	2.4
> CCCSc1nc(=S)n(Cc2ccccc2)c(C)c1C(C)=O
    5	-7	-3	14	2494	11	3.5
> COCCNc1cc(-c2ccccc2)nc2cc(-c3cccc(F)c3)nn12
    12	60*	13	-13	x	3	-5.2
> O=c1[nH]c(/C(Cl)=C/c2cccc(C(F)(F)F)c2)nc2cc(Cl)ccc12
    -18	1	12	4	2229	-1	1.8
> O=[N+]([O-])c1ccccc1S(=O)(=O)Oc1ccc(/C=N/n2cnnc2)cc1
    x	3	0	x	2168	x	x
> CCOC(=O)CSc1nnc(Cn2c(=O)sc3ccccc32)n1-c1ccccc1C
    x	0	0	2	4342	x	3.1
> CN(C(=O)COC(=O)c1cc(=O)[nH]c2ccccc12)c1ccccc1
    4	-9	x	-4	2840	0	2.6
> Oc1cc(O)c(CN2CCOCC2)cc1CN1CCOCC1
    6	-4	x	0	3521	6	1.5

A run of entries taken from the entries so far:
Second line of a record – Mtb hypoxia rep growth	PrP 5UTR inh	BJeLR viability	ugtP null kill	Bead autofluor	Mtb hypoxia rep	RN4220 kill
> CCOc1ccc(N(CC(=O)N2CCOCC2)S(=O)(=O)c2ccc(Cl)cc2)cc1
    6	-11	5	2	3861	-8	0.8
> COc1ccc(NC(=O)C2C3C=CC(C3)C2C(=O)NCc2ccccn2)c(OC)c1 (centres undefined)
    x	-16	x	2	3995	x	2.7
> Cc1cccc(OCC(=O)N2CCN(Cc3ccc4c(c3)OCO4)CC2)c1
    5	-3	2	4	3549	5	11
> COc1ccc(Cn2nc(C(=O)O)c3ccccc3c2=O)cc1F
    2	4	-1	6	4939	5	3.7

The list continues:
Second line of a record – Mtb hypoxia rep growth	PrP 5UTR inh	BJeLR viability	ugtP null kill	Bead autofluor	Mtb hypoxia rep	RN4220 kill
> CC(NC(=O)CCC(=O)NC(C)C1COc2ccccc2O1)C1COc2ccccc2O1 (centres undefined)
    x	-19	-1	2	2782	x	-2.8
> COc1cc(NC(=O)c2cc3nc(C4CC4)cc(C(F)(F)F)n3n2)c(OC)cc1Cl
    -1	-51	-22	-1	24788*	2	11
> CCCn1nc(C(=O)N2CCN(S(=O)(=O)c3ccc(C)c(C)c3)CC2)c2ccccc2c1=O
    48	-3	x	-1	8794	22	4.7
> COc1ccc(CCC(=O)NNC(=O)c2ccc(OC)cc2)cc1
    6	-24	2	-1	3827	7	-2.8
> CCC(=O)Nc1ccc2c(c1)nc(CN1CCN(C(C)=O)CC1)n2C
    x	-21	0	9	4117	x	1.3
> COc1ccc(-c2[nH]ncc2CN(C)CC2CCCCO2)cc1F (centres undefined)
    11	-18	0	3	3221	4	-2.8
> CCOC(=O)C1CCCN(C(=O)CCCn2nc(C)n3c(cc4sccc43)c2=O)C1 (centres undefined)
    1	-32	-3	-2	6703	-2	-13
> CN1CCN(/N=C/c2ccc(OCc3ccccc3)cc2)CC1
    x	-42	8	x	4456	x	x
> O=C(N/N=C/C=C/c1ccccc1[N+](=O)[O-])c1cc(-c2cccnc2)nc2ccccc12
    x	-14	-5	x	2258	x	x
> CC1(C)CC(=NO)C(C(O)c2cccc([N+](=O)[O-])c2)C(C)(C)N1 (centres undefined)
    -7	x	x	2	x	0	-1.9
> CC(C)[C@H](NC(=O)C1CCN(S(=O)(=O)c2ccccc2)CC1)C(=O)NCc1ccncc1
    8	-26	8	2	6246	13	0.6
> O=S(=O)(Nc1ccc(-c2ccc3nncn3n2)cc1)c1cc(F)ccc1F
    4	-23	-9	-2	8825	7	4.7
> Cc1ccc(C(=O)NCc2ccc3c(c2)OCO3)cc1
    x	-12	-2	1	4015	x	1.9
> COC(=O)Cc1ccc(NC(=S)NN2CCOCC2)cc1
    7	-13	-2	-3	2480	4	2.2
> CC(C)c1ccccc1NC(=O)COC(=O)/C=C/c1cccc([N+](=O)[O-])c1
    -4	-8	4	3	2248	0	1.2
